# Rce1 inh: yeast Ras-converting enzyme inhibition; Q03530; yeast membranes, quenched prenylated peptide cleavage fluorescence; calls only; 290,000 compounds, 0.27% hits;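 active = fall in fluorescence gain of 50% or more versus controls, with final raw signal at or below 3038400; inconclusive = same 50% fall but final raw signal above 3038400; inactive = fall in fluorescence gain under 50%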;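 note: plate controls were neutral control wells for no effect and wells lacking membranes for full effect; tested at 10 µM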
# Target sequence (Q03530 whole entry, looked up): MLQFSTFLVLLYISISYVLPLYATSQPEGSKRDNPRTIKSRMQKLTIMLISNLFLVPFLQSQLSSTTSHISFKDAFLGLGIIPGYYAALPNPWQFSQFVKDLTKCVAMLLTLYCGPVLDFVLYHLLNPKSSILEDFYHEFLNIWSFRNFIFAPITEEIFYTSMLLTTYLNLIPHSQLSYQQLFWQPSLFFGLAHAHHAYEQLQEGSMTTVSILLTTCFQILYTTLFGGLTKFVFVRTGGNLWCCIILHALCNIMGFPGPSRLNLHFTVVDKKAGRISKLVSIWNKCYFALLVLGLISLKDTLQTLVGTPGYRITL
# Env fusion inh: inhibitors of HIV Env-mediated cell fusion; inhibition, % at 12.3 µM; HeLa-JRFL Env/CEM21 cell fusion, luciferase; 360,000 compounds, 1.1% hits; AID 651610;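 active = mean replicate inhibition score of at least 50 and every replicate individually at or above 50; inconclusive = only one of the two criteria met; inactive = mean below 50 and not all replicates reaching 50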;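 note: 0% = plate neutral controls and 100% = maraviroc near 300 nM; one replicate is shown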
# eIF4H inh: inhibitors of RNA binding by human eIF4H; Q15056; AID 2012; 290,000 compounds, 0.94% hits; eIF4H fluorescence polarization binding assay; inhibition, % at 35 µM;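 active = 50% or more with normal probe brightness, or confirmed in later tests; inconclusive = above 50% with abnormal brightness, or retests that disagree; inactive = below 50% or failed in later tests; about a fifth of its hits are not listed in these tables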;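 note: calls also rest on retests at 20 µM and on dose response follow-up; 0% = protein and probe with vehicle and 100% = probe without protein; strong numbers were not always called active; many hits fall short of the cut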
# MT1-MMP act inh: blocks activation of human MT1-MMP; P50281; HT1080 RFP-PRO-GFP cells, GFP/RFP ratio fluorescence, overnight; percent of plate control window, DMSO zero; GFP/RFP ratio change, % at 20 µM; 360,000 compounds, 0.061% hits; AID 651647;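 active = GFP/RFP ratio change of at least 30% with cell ATP level not reduced by more than half and red fluorescence within 50% of control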; note: strong numbers were not always called active
#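 Material – HT1080 RFP-PRO-GFP cells · Control set – DMSO wells and RFP-L50D-GFP cells · Incubation – overnight cell settling, then overnight compound exposure, 37 °C, 5% CO2 · Compound dosing – single-point 20 µM compound, 1% DMSO · Read-out – GFP/RFP fluorescence ratio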
# PABP FP inh: blocks human PABP binding to poly(A) RNA; AID 2014; 290,000 compounds, 1% hits; fluorescence polarization; P11940; inhibition, % at 35 µM;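 active = 50% or more with normal probe brightness, or confirmed in later tests; inconclusive = above 50% with abnormal brightness, or retests that disagree; inactive = below 50% or failed in later tests; about a fifth of its hits are not listed in these tables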;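 note: calls also rest on retests at 20 µM and on dose response follow-up; controls were probe without protein and protein plus probe with vehicle; some compounds called inactive have numbers as strong as hits; many hits fall short of the cut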
# CSC inhib: cancer stem cell inhibition; cancer stem cell-like cells viability, luminescence; AID 2717; inhibition, % at 7.5 µM; 300,000 compounds, 1.1% hits;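 active = mean at 75% or more and at least half the replicates too; inconclusive = mean and replicates disagree; tested in HMLE shEcad cells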;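 note: 0% = median of negative and 100% = median of positive control wells; the first replicate is given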
# UUG fidelity: yeast start codon fidelity modulation; S. cerevisiae UUG-firefly luciferase reporter, luminescence/redox ratio; activity score, % at 18.7 µM; 350,000 compounds, 0.13% hits;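 active = replicate mean at a twofold rise or more, about +100% in these data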;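 note: firefly luciferase made from a UUG start codon reports start codon fidelity; reporter light over untreated wells divided by growth signal over untreated wells; some hits fall short of that in this replicate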
# eIF4H inh retest: second read-out of eIF4H inh, no call of its own (marks repeat the call); inhibition, %; compound at 20 µM; confirmation average;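 mean of two retest wells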
# PABP FP inh retest: further read-out of PABP FP inh, marked with its call; inhibition, %; compound at 20 µM; confirmation repeats;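 mean of two retest wells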
# MT1-MMP act inh RFP: second read-out of MT1-MMP act inh, no call of its own (marks repeat the call); RFP signal change, %; measured here: RFP expression control read;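 0 = vehicle wells; hits needed this value within 50% of zero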
# * = called active by the depositor; i = inactive; u = inconclusive; x = not tested or not shown.
SMILES,Rce1 inh,Env fusion inh,eIF4H inh,MT1-MMP act inh,MT1-MMP act inh RFP,PABP FP inh,CSC inhib,UUG fidelity,others
O=C(O)CCNS(=O)(=O)c1cccc(Br)c1,i,0.2,2.8,5.2,5.6,-3.7,-6.7,x,
COC(=O)C1=C(C)NC2=C(C(=O)c3ccccc32)C1c1cccc(OC)c1 (stereo unspecified),i,10.4,-8.0,1.7,-2.5,-2.1,11.3,-8.2,
CCN1CCN(C(=O)c2cc(-c3ccc(Cl)s3)nc3ccccc23)CC1,i,10.6,-6.9,-1.9,-1.5,4.7,x,-3.0,
O=C(C(=O)N1CCN(c2ccccc2F)CC1)c1cn(CC(=O)N2CCCC2)c2ccccc12,x,-34.2,x,1.6,6.9,x,x,0.8,
O=C(NCc1ccccn1)c1c(Cl)cccc1Cl,i,x,-5.3,0.2,2.3,0.9,1.9,-24.8,
COc1ccc(NC(C)=O)cc1NC(=O)C1CCN(C(=O)Nc2ccccc2)CC1,i,-7.4,x,1.3,2.5,x,-4.9,-0.4,
CC(=O)NC12CC3CC(C1)CC(C(=O)OCC(=O)Nc1c(F)cccc1F)(C3)C2,x,3.5,x,-1.4,1.2,x,-7.5,-6.8,
CC(=O)Nc1c(F)c(F)c(F)c(F)c1F,i,-18.0,3.7,x,x,-4.4,6.9,-7.6,
Cc1ccc2nc(C)c(C(=O)N/N=C/c3ccco3)cc2c1,i,10.0,9.7,2.8,-1.2,8.9,-12.9,x,
CCCCn1c(N)c(N(CC(C)C)C(=O)CCCc2nc3ccccc3c(=O)[nH]2)c(=O)[nH]c1=O,i,2.9,x,3.4,2.2,x,-2.9,-11.0,
COc1ccc(C(CNC(=O)c2cccc(Br)c2)N2CCCC2)cc1 (stereo unspecified),i,-34.6,-6.7,2.5,1.4,4.4,-13.5,-12.6,
CC(Sc1nnc(CN2CCCC2)n1Cc1ccccc1)C(=O)Nc1ccc(F)cc1 (stereo unspecified),i,14.3,-7.4,-1.1,0.8,-5.1,11.5,-24.3,
Cc1cc(C(=O)CSc2nnc(-c3ccc(Cl)cc3)n2CC2CCCO2)c(C)n1C (stereo unspecified),i,-10.3,2.1,-0.1,3.5,11.1,-19.4,-31.5,
Cc1ccc(C(C)C)c(OCC(=O)NN=C2CCCCCCC2)c1,i,x,10.9,-4.8,-0.9,17.6,0.3,-20.2,
COc1cccc(C(C)(O)c2nc(-c3ccc4ccccc4c3)cs2)c1 (stereo unspecified),x,23.6,x,-2.9,-13.5,x,x,-13.0,
COc1ccc(NC(=O)[C@@H]2CC=C[C@@H]3CCN(Cc4ccc(Cl)c(Cl)c4)C(=O)[C@@H]32)cc1,i,13.4,x,3.3,-13.0,x,-8.7,-18.7,
Cc1ccc(NC(=O)[C@H](C)NC(=O)C2CCN(C(=O)[C@@H](NC(=O)OC(C)(C)C)C(C)C)CC2)cc1,i,-1.4,13.3,7.6,5.6,15.2,-13.2,-3.1,
CC(=O)N/C(=C/c1ccc2c(c1)OCO2)C(=O)NCCCO,i,x,11.2,1.5,5.1,12.9,-5.8,2.8,
CCc1nc(N)c(C#N)c(-c2cccnc2)c1C,i,10.4,2.8,-1.1,1.5,-9.7,6.2,-0.6,
Cc1ccccc1NC(=O)Cn1nnc2c(cnn2-c2ccc(F)cc2)c1=O,i,x,-12.4,6.3,2.5,-6.0,1.0,-8.9,
O=C1C=C(O)CC(c2ccc(Cl)cc2)C1 (stereo unspecified),i,-29.4,-4.0,3.3,4.2,4.9,x,-15.0,
O=c1oc2ccccc2c(Nc2cc3ccccc3cc2O)c1[N+](=O)[O-],i,-123.9,38.8,-4.5,-9.3,28.3,-11.0,x,
COc1nc(-c2ccc(Cl)cc2Cl)nc2ccccc12,i,12.2,-5.4,-5.5,-0.8,0.3,-2.7,-9.2,
Cc1cc2oc(=O)cc(CN(C)Cc3ccccc3)c2cc1C(C)C,i,24.8,5.7,-1.7,-2.3,1.8,12.6,x,
CC(NC(=O)c1ccccc1F)C1CC1 (stereo unspecified),i,3.3,3.5,-2.2,0.0,6.4,6.9,-20.6,
CN(C)c1nc(Nc2ccc(F)cc2)nc(Oc2ccc(F)cc2)n1,i,6.5,0.5,-15.9,-21.1,17.1,17.2,0.7,
CC1CCCCC1NC(=O)CSc1nnc(CC(=O)Nc2ccccc2F)n1C (stereo unspecified),i,-1.6,-4.9,-3.6,-0.9,16.2,-4.8,-18.3,
CCC1Oc2ccc(C)cc2N(CC(=O)N2CCN(c3ccc(F)cc3)CC2)C1=O (stereo unspecified),i,x,-16.4,5.0,-6.3,13.3,-0.7,-8.7,
Cc1cc(=O)[nH]c(CN2CCOCC2)n1,i,8.5,-5.2,-3.5,0.6,-9.8,-11.7,-19.6,
Cc1ccccc1OCC(=O)Nc1ccc(NC(=O)c2ccco2)cc1,i,0.5,5.6,6.0,6.4,0.3,8.4,x,

# Compounds above that have bromine:
SMILES,Rce1 inh,Env fusion inh,eIF4H inh,MT1-MMP act inh,MT1-MMP act inh RFP,PABP FP inh,CSC inhib,UUG fidelity,others
O=C(O)CCNS(=O)(=O)c1cccc(Br)c1,i,0.2,2.8,5.2,5.6,-3.7,-6.7,x,
COc1ccc(C(CNC(=O)c2cccc(Br)c2)N2CCCC2)cc1 (stereo unspecified),i,-34.6,-6.7,2.5,1.4,4.4,-13.5,-12.6,

# Remaining list, next part:
SMILES,Rce1 inh,Env fusion inh,eIF4H inh,MT1-MMP act inh,MT1-MMP act inh RFP,PABP FP inh,CSC inhib,UUG fidelity,others
CN(C)CCCN(C(=O)c1ccco1)c1nc2ccc(Br)cc2s1,i,-1.0,-0.3,0.0,-2.8,-2.8,-3.9,x,
COc1cc(S(=O)(=O)N2CCn3cccc3C2C)ccc1NC(C)=O (stereo unspecified),x,x,x,-5.6,0.0,x,-17.3,-3.9,
CN(C)S(=O)(=O)n1cc(/C=C(\NC(=O)c2ccccc2Cl)C(=O)N2CCOCC2)c2ccccc21,i,-4.6,-5.5,-4.4,2.2,-9.5,-0.6,-21.6,
CCOc1cc(/C=C2\C(=O)ON=C2c2ccccc2)ccc1OC,i,8.1,-6.7,-1.2,6.2,15.4,2.0,-2.1,
Cc1ccc(S(=O)(=O)/N=C2/NC(=O)/C(=C/c3cccnc3)S2)cc1,i,x,-5.8,-1.6,-5.4,10.1,2.9,x,
CCCc1c2c(cc3c(=O)cc(C(=O)OCC)oc13)CCCC2,i,16.6,-8.5,-6.1,-1.3,1.1,-23.1,-0.2,
CNC(=O)c1cc(-c2ccc(Cl)cc2)n(-c2ccccc2)n1,i,-0.6,-5.1,-1.7,-2.1,1.3,-9.4,-16.9,
CCC1SC(CC)C(=O)N(CC(=O)NCCc2ccccc2)C1=O (stereo unspecified),i,-7.2,-8.1,3.7,-0.2,6.3,-4.1,-12.7,
COc1cc(C2N(c3ccccc3)CCN2c2ccccc2)cc(OC)c1OC,i,-43.6,5.2,7.3,3.9,2.7,-15.7,-1.0,
N#C/C(=C\c1cccc([N+](=O)[O-])c1)c1ccccn1,i,-20.5,4.4,-3.5,-3.7,2.6,-5.4,x,
CCCS(=O)(=O)NC(=O)C1(C)CCN(C(=O)c2ccc(C(F)(F)F)cc2)C1 (stereo unspecified),x,3.3,x,1.1,3.6,x,x,2.2,
CCCCn1c(N)c(N(CC(C)C)C(=O)COC(=O)c2ccccc2NCCO)c(=O)[nH]c1=O,i,-2.4,x,5.3,2.3,x,x,7.7,
CCn1cc(CNC(=O)CCSc2nc(-c3ccco3)cc(C(F)(F)F)n2)cn1,i,-138.3,-12.4,x,x,-7.0,4.0,x,
COc1ccc(OC(=O)C(C)N2C(=O)c3ccccc3C2=O)cc1 (stereo unspecified),i,-0.7,-3.3,0.9,1.1,15.6,x,-5.1,
CC1(NC(=O)CC[N+](C)(C)CCO)CS(=O)(=O)CC1S(=O)(=O)[O-] (stereo unspecified),i,-4.7,54.6,x,x,9.7,5.4,x,eIF4H inh retest=-2.8;PABP FP inh retest=0.2
C=CCNC(=O)C1CCN(c2c([N+](=O)[O-])cc(C(F)(F)F)cc2[N+](=O)[O-])CC1,i,x,4.1,3.6,-1.2,-13.8,x,x,
O=[N+]([O-])c1ccc(C(O)CN=Cc2ccc(O)cc2O)cc1 (stereo unspecified),i,1.6,3.4,-3.3,3.5,-5.3,0.4,x,
CC(=O)Nc1ccc(S(=O)(=O)Nc2nc(-c3ccc(C(C)(C)C)cc3)cs2)cc1,i,-22.7,0.6,0.6,1.5,-1.0,-11.4,-18.5,
CCC1CCCCN1C(=O)Nc1cc(Cl)ccc1OC (stereo unspecified),i,-0.9,1.6,-1.4,2.4,-1.6,3.3,x,
O=S(=O)(c1ccccc1)N1CCC(n2cnc3ccccc32)CC1,i,-16.9,-6.5,-6.9,-7.5,-3.5,-17.3,-25.3,
FC(F)(F)c1ccccc1-c1ccc2nncn2c1,x,5.1,x,0.7,5.0,x,x,-19.0,
CCC(Sc1nc(N)c(NC(=O)c2ccc(OC)c(OC)c2)c(=O)[nH]1)C(=O)OC (stereo unspecified),i,-22.9,-0.8,0.5,5.0,-3.5,-1.4,-5.8,
O=C1CN(C(=O)/C=C/c2ccc(Cl)cc2)c2ccccc2N1,i,0.0,5.4,-2.5,-1.7,53.5,3.9,x,eIF4H inh retest=-0.3;PABP FP inh retest=3.4
O=C(CNS(=O)(=O)c1c(F)cccc1F)NC1CCCc2ccccc21 (stereo unspecified),x,7.7,x,4.3,3.6,x,-17.1,-27.8,
CC(Oc1ccc(Br)cc1)C(=O)NCC(c1cccs1)N1CCOCC1 (stereo unspecified),i,2.7,x,-0.3,-2.6,x,7.0,-13.9,
CN1C(=O)c2cccc3c(N)ccc(c23)C1=O,i,-2.6,u,-131.5,5.0,u,6.1,-21.8,
CSc1nsc(SCCN2C(=O)c3ccccc3C2=O)n1,i,x,-2.1,-3.3,1.8,3.5,-1.5,-1.0,
CCc1nc2sccc2c(=O)n1N,i,-6.3,4.4,-3.4,-5.1,0.4,x,x,
COc1ccc(S(=O)(=O)N2CCOCC2)cc1C(=O)N(C)Cc1ccco1,x,x,x,0.1,1.8,x,-14.7,-8.6,
CCCN1CCCC[C@H]1C(=O)Nc1c(C)cccc1C,i,-1.5,x,1.3,3.4,x,1.0,-6.7,
Cc1ccccc1OCC(=O)NCC(=O)N/N=C/c1cccc([N+](=O)[O-])c1,i,-4.4,2.2,x,x,2.6,-4.4,x,
COc1cccc(NC(=O)c2sc(Cl)nc2C)c1,i,-14.8,-3.3,4.5,0.6,3.6,-8.6,-12.3,

# Sorted by formula weight (smallest number first): part of the list above.
SMILES,Rce1 inh,Env fusion inh,eIF4H inh,MT1-MMP act inh,MT1-MMP act inh RFP,PABP FP inh,CSC inhib,UUG fidelity,others
CC(=O)Nc1c(F)c(F)c(F)c(F)c1F,i,-18.0,3.7,x,x,-4.4,6.9,-7.6,
Cc1ccc2nc(C)c(C(=O)N/N=C/c3ccco3)cc2c1,i,10.0,9.7,2.8,-1.2,8.9,-12.9,x,
COc1ccc(C(CNC(=O)c2cccc(Br)c2)N2CCCC2)cc1 (stereo unspecified),i,-34.6,-6.7,2.5,1.4,4.4,-13.5,-12.6,
CC(Sc1nnc(CN2CCCC2)n1Cc1ccccc1)C(=O)Nc1ccc(F)cc1 (stereo unspecified),i,14.3,-7.4,-1.1,0.8,-5.1,11.5,-24.3,

# An excerpt; count on the stated rates, not on these rows.
